Bioassay records: PubChem BioAssay, National Center for Advancing Translational Sciences (NCATS)
TRPV1 potentiator = human TRPV1 potentiation | Q8NER1 | TRPV1-expressing cells, Fluo-8 calcium influx, capsaicin EC20 potentiation; host cell line not named in the record; control for the full effect not named in the record | potentiation, % at 8.33 µM | 320,000 tested, 0.02% active; active means potentiation above 80%; inconclusive means 30% to 80%; inactive means below 30%; note: 0% is about no effect
Target sequence (Q8NER1 whole entry, looked up): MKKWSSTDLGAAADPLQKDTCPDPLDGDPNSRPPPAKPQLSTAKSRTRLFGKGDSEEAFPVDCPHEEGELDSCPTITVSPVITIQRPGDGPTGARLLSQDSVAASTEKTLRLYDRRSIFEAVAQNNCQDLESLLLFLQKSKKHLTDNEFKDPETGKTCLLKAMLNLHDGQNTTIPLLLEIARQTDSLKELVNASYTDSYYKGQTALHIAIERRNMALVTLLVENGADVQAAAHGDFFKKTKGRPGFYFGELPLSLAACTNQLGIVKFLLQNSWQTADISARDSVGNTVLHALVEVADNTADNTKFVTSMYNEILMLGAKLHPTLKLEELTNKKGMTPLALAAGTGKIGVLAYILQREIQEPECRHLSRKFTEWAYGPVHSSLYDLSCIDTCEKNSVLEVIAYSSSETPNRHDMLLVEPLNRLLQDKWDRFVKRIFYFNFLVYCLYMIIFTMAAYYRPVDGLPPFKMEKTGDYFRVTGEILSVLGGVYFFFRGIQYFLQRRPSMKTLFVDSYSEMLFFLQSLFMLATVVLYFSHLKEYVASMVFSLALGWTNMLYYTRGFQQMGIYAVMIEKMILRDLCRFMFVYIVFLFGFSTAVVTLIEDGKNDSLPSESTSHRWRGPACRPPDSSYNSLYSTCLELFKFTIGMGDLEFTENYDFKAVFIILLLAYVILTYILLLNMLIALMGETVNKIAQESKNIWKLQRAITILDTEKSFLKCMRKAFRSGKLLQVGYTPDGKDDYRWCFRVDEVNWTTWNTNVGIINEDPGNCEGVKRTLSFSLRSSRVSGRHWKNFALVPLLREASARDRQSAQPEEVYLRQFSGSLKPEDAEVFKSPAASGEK
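TRPV1-expressing cells were cultured overnight at 35.5C and loaded with Fluo-8 calcium dye for 40 to 90 min at room temperature. After a 10 s baseline, compound was added and calcium influx was read kinetically for 3 min (ex 480/em 520 nm).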
CtBP-E1A inh = inhibitors of CtBP/E1A interaction. AlphaScreen GST-E1A/His-CtBP binding, 1536-well; stronger effect = lower value; control for the full effect not named in the record. activity change, % (test concentration not listed). AID 651724. 340,000 tested, 0.49% active; in the data active means activity change below about -65%; inconclusive means about -30% to -65%; inactive means above about -30%; note: % is set by controls: 0 for no effect and ±100 for the full control effect; compound concentration not given in the record
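In 5 uL wells, 23 nL compound meets equimolar GST-E1A and His-CtBP (5X stock 125 nM each) for 2 h, 37 °C. Beads (5X, 50 ug/mL) then 1 h, 37 °C, dark.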
TRPML1 ag = agonists of human TRPML1 channel; TRPML1-expressing cells, Ca2+ dye fluorescence, FDSS; host cell line not named in the record; reference of the full effect not given here; activation, % (test concentration not listed); Q9GZU1; 410,000 tested, 0.12% active; AID 624414; in the data active = activation above about 50%; inconclusive = about 30% to 50%; inactive = below about 30%; note: 0% is about no effect; the text of the record puts the active cut at 80%
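TRPML1-DL cells, Tet-induced overnight (~16 h, 37 degrees C), loaded 45-90 min at room temperature with Ca8 no-wash calcium dye plus quencher. FDSS fluorescence: 10 s baseline, compound pin-transfer, 110 s agonist read, then EC80 54-4 (4uM final) and 110 s antagonist read.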
D2 PAM = potentiates the human D2 dopamine receptor allosterically; P14416; DiscoveRx D2 beta-arrestin cells, luminescence, 90 min; 100% = 57 uM dopamine signal; potentiation, % (test concentration not listed); 360,000 tested, 0.23% active; AID 624464; active = potentiation of 50% or more; inconclusive = 30% to 50%; inactive = 30% or less;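 note: compound concentration not given in the record; tested on top of an EC20 dose of dopamine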
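PathHunter D2 cells, attached overnight at 37 deg C, received compound in DMSO plus dopamine at EC20 (50 nM final) for 90 min at 37 deg C. Beta-arrestin recruitment was read as luminescence after 1 h with detection reagent at ambient temperature.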
Six1-Eya2 blk = inhibitors of human Six1/Eya2 interaction. 360,000 tested, 0.56% active. activity change, % (test concentration not listed). AlphaScreen GST-Six1/His-Eya2 binding, biochemical; stronger effect = lower value; control for the full effect not named in the record. Q15475+O00167; in the data active = activity change below about -65%; inconclusive = about -30% to -65%; inactive = above about -30%; note: % is set by controls: 0 for no effect and ±100 for the full control effect; compound concentration not given in the record
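Six1/Eya2 binding was read as AlphaScreen signal after compounds were pinned into GST-Six1 plus His-tagged Eya2 (5X stock 250/500 nM) in pH 8.0 Tris/NaCl/TCEP buffer, beads added, then incubated 1 h, 37 C, dark.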
TRPML1 blocker = human mucolipin-1 channel inhibition; Q9GZU1; TRPML1-inducible cells, Ca2+ dye fluorescence, FDSS; stronger effect = lower value; inhibition of EC80 agonist-evoked calcium signal; activity change, negative = inhibition, % (no concentration beside the values); 390,000 tested, 0.02% active; AID 624415; in the data active means activity change below about -50%; inconclusive means about -30% to -50%; inactive means above about -30%;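 note: stimulus is agonist 54-4 at its EC80 concentration; % is set by controls: 0 for no effect and ±100 for the full control effect; compound concentration not given in the record; the text of the record puts the active cut at -80%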
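TRPML1-DL cells, Tet-induced overnight (~16 h, 37 °C) at 1,500 cells/well, were loaded with Ca8 no-wash dye plus quencher for 45-90 min at room temperature. Compounds were pinned during FDSS kinetic reading; agonist 54-4 at EC80 (4 uM final) then added.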
Starred values were filed as active, the others as inactive; ? = inconclusive; nt = not tested or not shown.

compound | TRPV1 potentiator | CtBP-E1A inh | TRPML1 ag | D2 PAM | Six1-Eya2 blk | TRPML1 blocker
O=C(Nc1c2c(nn1-c1cccc(Cl)c1)CS(=O)(=O)C2)c1ccco1 | 3 | -8 | -0.9 | -12 | 1 | -26
COc1ccc(/C=N/NC(=O)CCC(=O)Nc2ccccc2)cc1OC | 3 | nt | 0.7 | -7 | 3 | 14
CCC(=O)NCCc1cc2ccc(C)c(C)c2[nH]c1=O | 7 | 1 | -1.2 | -5 | 1 | 2
O=C(O)c1ccccc1C(=O)c1cccc2ccccc12 | 12 | 6 | -0.1 | 3 | 2 | -5
CC(C)Oc1ccc(N2CC(C(=O)Nc3ccccc3F)CC2=O)cc1 (centres undefined) | 4 | -1 | 1.6 | -18 | 4 | ?
O=C(N/C(=C/c1cccs1)c1nc2ccccc2[nH]1)c1ccccc1 | 3 | 2 | 0.7 | -5 | 5 | -2
COc1ccc(/C=N/NC(=O)C2(C)NC(C)(C)Cc3ccccc32)cc1 (centres undefined) | 2 | 2 | 1.3 | -3 | -6 | 6
CC(=O)N1CCc2cc(S(=O)(=O)NC(Cc3ccccc3)C(=O)Nc3cc(C)ccn3)ccc21 (centres undefined) | -5 | 0 | -0.1 | -7 | 0 | 9
COc1ccc(C(CNC(=O)C(CCSC)NC(=O)c2ccccc2Cl)N2CCCC2)cc1 (centres undefined) | -1 | nt | -0.9 | -21 | 2 | 12
COc1ccccc1CCc1nnc(CCC(=O)NC(C)Cc2cccc(C)n2)o1 (centres undefined) | 2 | 8 | nt | -6 | 2 | nt
COc1ccc(S(=O)(=O)N2CCN(CC(=O)N3CCOCC3)CC2)cc1OC | nt | 11 | -0.2 | -6 | 7 | 50
CN1CCC(N(C)CC(O)c2ccccc2)CC1 (centres undefined) | 4 | -8 | -0.5 | -14 | 13 | -2
CN(Cc1ccccc1)CC1CCCN(CCc2ccccc2F)C1 (centres undefined) | -2 | -9 | -0.2 | -23 | -4 | -6
Cc1cc(C)nc(SCC(=O)Nc2ccnc3ccccc23)n1 | 7 | -18 | 1.0 | 5 | -8 | 7
CCc1nnc(NC(=O)c2cc(S(=O)(=O)N(C)c3ccc(OC)cc3)ccc2Cl)s1 | -11 | -2 | 0.1 | 12 | -7 | 7
O=C(NCc1ccccc1)c1c(O)c2ccccc2[nH]c1=O | -1 | -4 | 0.7 | -4 | 1 | -13
O=C1OC(c2ccccc2)(c2cc(Br)c(O)c(Br)c2)c2ccccc21 (centres undefined) | nt | -1 | 0.1 | -4 | -7 | 15
COC(=O)c1ccccc1NC(=O)COc1ccccc1[N+](=O)[O-] | -9 | 8 | 2.2 | -8 | -3 | 16
O=C(O)c1cccc(-n2c(/C=C/c3ccccc3)nc3ccccc3c2=O)c1 | ? | ? | -0.9 | 2 | 15 | 5
Cc1ccccc1COc1ccc(/C=N/NC(=O)c2nnn(-c3nonc3N)c2CN2CCC(C)CC2)cc1 | -2 | -4 | 0.6 | -3 | -8 | -12
CNc1ccc(Br)cc(C(=O)/C=C/c2ccc(OC)cc2)c1=O | 1 | 0 | 3.0 | -5 | 0 | -4
COc1ccc(CCN(C(=O)/C=C/C(=O)O)C2CC(=O)N(c3ccccc3)C2=O)cc1 (centres undefined) | 5 | 11 | 4.5 | -8 | -5 | 3
CCc1ccccc1NC(=O)C1c2ccccc2Oc2ccccc21 | 7 | nt | 0.6 | -6 | 5 | -12
NC(=S)c1ccc[n+]([O-])c1 | nt | -1 | 0.4 | -9 | 6 | -9
COCCCNC(=S)NNC(=O)c1cc(C2CC2)nc2ccccc12 | 1 | -2 | 0.2 | -67 | 11 | -1
COc1ccc(/C=N/Nc2ncc(Br)cn2)c(OC)c1 | -2 | nt | 0.8 | -3 | -8 | 3
COC(=O)c1cc2ccsc2n1Cc1nc(-c2ccc(OC)cc2)oc1C | -6 | 4 | 0.0 | -15 | -5 | 6
COc1cccc(/C=N/NC(=O)CN2CC(c3ccccc3)CC2=O)c1O (centres undefined) | 5 | ? | 0.8 | -7 | ? | 10
NC(=O)Nc1ccc(C(=O)OCC(=O)NC2CCCc3ccccc32)cc1 (centres undefined) | nt | 9 | -0.1 | 4 | 5 | -4
NC(Cc1ccc(C(F)(F)F)cc1)c1csc(Nc2cnccn2)n1 (centres undefined) | nt | ? | 6.5 | -15 | ? | -6

Compound profiles, as listed above. Screens in order: TRPV1 potentiator	CtBP-E1A inh	TRPML1 ag	D2 PAM	Six1-Eya2 blk	TRPML1 blocker
Record of NC(=O)Nc1ccc(C(=O)OCC(=O)NC2CCCc3ccccc32)cc1 (centres undefined) : nt	9	-0.1	4	5	-4
Record of NC(=S)c1ccc[n+]([O-])c1 : nt	-1	0.4	-9	6	-9
Record of O=C1OC(c2ccccc2)(c2cc(Br)c(O)c(Br)c2)c2ccccc21 (centres undefined) : nt	-1	0.1	-4	-7	15
Record of COc1ccc(/C=N/NC(=O)C2(C)NC(C)(C)Cc3ccccc32)cc1 (centres undefined) : 2	2	1.3	-3	-6	6
Record of O=C(NCc1ccccc1)c1c(O)c2ccccc2[nH]c1=O : -1	-4	0.7	-4	1	-13

Further records:
compound | TRPV1 potentiator | CtBP-E1A inh | TRPML1 ag | D2 PAM | Six1-Eya2 blk | TRPML1 blocker
N/C(CS(=O)(=O)c1ccccn1)=N\OC(=O)c1ccc(Cl)cc1 | 19 | 0 | -0.4 | 20 | 8 | 2
O=C(COc1cc(F)ccc1[N+](=O)[O-])Nc1cccc(S(=O)(=O)NC2=NCCC2)c1 | 7 | 4 | 2.6 | 0 | -2 | 9
COC(=O)C(C)(C)ONC(=O)Nc1ccccc1 | 12 | 1 | -0.4 | -21 | -6 | 20
O=C1c2ccccc2C(=O)N1CN(C(=O)c1ccccc1[N+](=O)[O-])c1ccc(F)cc1 | -4 | 12 | -1.4 | -7 | -1 | -5
COc1cc(N)c2ncccc2c1Cl | nt | -7 | 1.4 | 4 | 3 | 23
Cc1ccc(CC(=O)Nc2cccnc2)cc1 | 5 | nt | 0.2 | -7 | 2 | -4
CCCCOC(=O)C(C)Sc1n[nH]c(=O)[nH]c1=O (centres undefined) | -4 | 6 | 4.8 | 1 | 4 | 18
CCn1c(SCC(=O)NCc2ccccc2)nc2nc3c(cc2c1=O)CCCC3 | 16 | 4 | -0.7 | 0 | -3 | -12
Cc1ccccc1C(=O)Nc1ccnn1C1CCN(CCCc2ccccc2)CC1 | 10 | 10 | 0.2 | -7 | -2 | -12
NC(=O)N/N=C/c1coc2ccc(O)cc2c1=O | ? | 3 | -0.7 | -3 | 2 | -9
O=C(NCCc1ccccc1F)c1ccc2c(c1)OCCO2 | -4 | 4 | 0.0 | -9 | -6 | 26
CC(=O)c1cccc(NC(=O)C2CC(=O)N(Cc3ccccc3)C2)c1 (centres undefined) | 8 | -2 | 2.4 | -26 | 2 | 5
COc1cccc(CN(C)C(=O)CSCC(=O)Nc2cccc(C)c2)c1OC | -5 | -6 | -0.9 | -4 | -1 | -2
Cc1ccc(NC(=S)N2CCN(c3ccccn3)CC2)cc1C | ? | 0 | 0.4 | -2 | -3 | -12
COCCCN1C(=O)C(CC(=O)NC2CCCC2)CC(C(=O)N2CCOCC2)=C1C (centres undefined) | nt | 7 | 0.3 | 9 | 5 | 16
CCN1CCc2c(OCc3ccccc3)cccc2C1=O | -2 | -5 | 1.6 | -8 | 4 | 62
Cc1ccc(C(=O)Nc2nc3n(n2)C(c2ccccc2)CC(=O)N3)cc1 (centres undefined) | 7 | -18 | -0.4 | -3 | -17 | -2
COc1ccc(NC(=O)C2(C)Cc3c(-c4ccc(NC(C)=O)cc4)ccnc3O2)cc1 (centres undefined) | nt | -8 | -0.6 | -3 | -6 | nt
Cc1nc(N(C)C)ncc1C(=O)O | 9 | -2 | 0.2 | -23 | -2 | 54
Cn1cc(C(=O)c2cccc(Cl)c2)cc1/C=N\O | -6 | -12 | -0.2 | 1 | 20 | ?
COc1ccccc1-c1nnc(SCC(=O)NCc2ccco2)n1N | 0 | 2 | 0.5 | 1 | -1 | 21
COc1ccccc1NC(=O)c1ccc2c(c1)CCN2S(C)(=O)=O | -23 | 8 | 0.3 | 3 | 1 | -12
N#C/C(=C\c1ccc(OC(=O)c2ccccn2)cc1)C(N)=O | 10 | -4 | 0.7 | -3 | -90* | -2
COc1ccccc1N1CCN(C(=O)c2oc3c(c2C)C(=O)CC(C)(C)C3)CC1 | -8 | nt | -1.3 | -3 | -18 | -7
CCOc1ccc(S(=O)(=O)NCC(c2ccc3c(c2)OCO3)N2CCN(C)CC2)cc1 (centres undefined) | -4 | -14 | 1.5 | -3 | 6 | 5
COc1ccc(-c2nnc3n(CCc4ccccc4)c(=O)c4ccccc4n23)cc1OC | 5 | -3 | -0.2 | 0 | -3 | -7
CSCC[C@H](NC(=O)C1CCC(CNC(=O)[C@@H]2CCCN2C(=O)OC(C)(C)C)CC1)C(=O)O (some centres undefined) | -9 | 0 | 2.3 | -9 | 1 | 1
COc1ccc(C(=O)NC(=S)Nc2cccnc2)cc1Cl | 5 | -1 | -0.1 | 1 | -2 | -2
Cc1ccc(NC(=O)c2cccc3c2C(=O)N(C2CCCCC2)C3)c(Cl)c1 | -3 | 3 | -1.2 | 4 | 0 | -5
COc1cccc(NC(=O)CN(C)C(=O)CC2CCCC2)c1 | nt | -11 | -0.5 | -6 | -8 | -3
COc1ccccc1NC(=O)Cn1cnc2c1c(=O)n(C)c(=O)n2C | 8 | 6 | -0.6 | -1 | -1 | 0
CCOC(=O)c1c(C)n(C)c2ccc(OCC(O)CN3CCCCCC3)cc12 (centres undefined) | -8 | 17 | -0.5 | -12 | -1 | -17
CC(C)(C)c1cc(NC(=O)NN2CCOCC2)nn1-c1c(Cl)cc(Cl)cc1Cl | -5 | -9 | 1.2 | -2 | -5 | 1

Quoted at random: 4 records from the list
compound | TRPV1 potentiator | CtBP-E1A inh | TRPML1 ag | D2 PAM | Six1-Eya2 blk | TRPML1 blocker
N/C(CS(=O)(=O)c1ccccn1)=N\OC(=O)c1ccc(Cl)cc1 | 19 | 0 | -0.4 | 20 | 8 | 2
COc1ccccc1NC(=O)c1ccc2c(c1)CCN2S(C)(=O)=O | -23 | 8 | 0.3 | 3 | 1 | -12
O=C(COc1cc(F)ccc1[N+](=O)[O-])Nc1cccc(S(=O)(=O)NC2=NCCC2)c1 | 7 | 4 | 2.6 | 0 | -2 | 9
Cc1ccc(C(=O)Nc2nc3n(n2)C(c2ccccc2)CC(=O)N3)cc1 (centres undefined) | 7 | -18 | -0.4 | -3 | -17 | -2
